Screening data from PubChem.
GLA inh pH 4.5 – blocks human alpha-galactosidase A at pH 4.5; 230,000 tested, under 10 active; P06280; purified enzyme, 4-MU-alpha-Gal fluorescence, pH 4.5; activity change, negative = inhibition, % at 105 µM; inconclusive = small, poorly fitted or top-dose-only inhibition, or a rising curve; inactive = flat fitted curve, though single readings scatter; no compound was filed as active;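 further: 0% = full activity with enzyme and -100% = basal without enzyme; dose as in the result columns while the protocol names 77 µM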
Target sequence (P06280 whole entry, looked up): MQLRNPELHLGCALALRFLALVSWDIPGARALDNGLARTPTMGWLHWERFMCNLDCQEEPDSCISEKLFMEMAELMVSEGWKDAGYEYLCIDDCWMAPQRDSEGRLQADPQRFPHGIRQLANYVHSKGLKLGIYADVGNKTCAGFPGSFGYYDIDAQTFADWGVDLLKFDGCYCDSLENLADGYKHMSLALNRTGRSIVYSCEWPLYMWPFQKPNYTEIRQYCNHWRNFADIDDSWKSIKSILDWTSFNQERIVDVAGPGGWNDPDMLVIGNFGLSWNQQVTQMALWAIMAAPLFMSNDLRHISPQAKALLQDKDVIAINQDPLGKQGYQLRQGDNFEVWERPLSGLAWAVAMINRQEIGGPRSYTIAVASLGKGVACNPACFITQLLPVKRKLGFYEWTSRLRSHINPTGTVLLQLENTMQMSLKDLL
Rango release inh – inhibitors of RanGTP-induced Rango-importin beta complex dissociation; O95149+P62826; Biochemical FRET Rango-importin beta, RanGTP-induced dissociation; Potency, µM (titrated, usually from 46.1 µM), for the others: at the top dose activity change, negative = inhibition; 0.071% of 340,000 active; AID 540253; active means falling FRET ratio curve, often poorly fitted, with flat reads before Ran was added; inconclusive means other falling curves, or compound fluorescence or quenching; inactive means flat or rising ratio curve;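 further: potency means the concentration at half of the fitted maximal effect; % of control where 0% means no effect; nearly all actives have a fitted effect of over 45% in size; -100% = wells without RanGTP and RCC1; the record marks most hits as doubtful in a second field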
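Compounds preincubate 5 min with complex of recombinant Rango and importin beta in PBS with 1 mM DTT. Ran (0.6 uM) loaded with 2 mM GTP plus 0.2 uM RCC1 starts dissociation; FRET is recorded 45 min later.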
Rango-impB inh – inhibitors of Rango-importin beta complex formation; Potency, µM (series often up to 92.2 µM), for inactives: at the highest dose inhibition of complex formation; 0.031% of 340,000 active; Q14974; Rango CFP/YFP FRET sensor + importin beta, 45 min; AID 540263; active = rising FRET ratio curve, often small or poorly fitted; inconclusive = mostly compound fluorescence or quenching in the first reads; inactive = flat curves in all reads;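 further: potency means the concentration at half of the fitted maximal effect; 0% = DMSO wells and 100% = buffer wells lacking importin beta; nearly all actives have a fitted effect of over 15% in size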
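FRET biosensor Rango (snurportin 1 IBB between N-terminal EYFP and C-terminal Cerulean), 50 nM in PBS/1 mM DTT/0.02% Tween-20/0.1% BSA, preincubated 5 min RT with compound; 0.125 microM importin beta added, 45 min RT, CFP/YFP FRET ratio read.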
miR-21 FLuc – raises the signal of a miR-21 reporter; HeLa miR-21 FLuc reporter, luciferase, 48 h; Potency, µM (titrated, usually from 38.3 µM), for inactives: at the top dose reporter change, positive = more light; AID 2288; 340,000 tested, under 10 active; active = well fitted rising curve with a large enough effect; inconclusive = small, poorly fitted or top-dose-only effect; inactive = no such curve, though single readings can be large or run the other way;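 further: % of control where 0% means no effect; miR-21 action dims this reporter so a rising signal means less miR-21 action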
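HeLa cells endogenously expressing miR-21, stably carrying CMV-driven firefly luciferase with a downstream miR-21 binding site, 2000 cells/well. Titrations up to approximately 40 uM, 48 hours; luciferase luminescence read.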
Numbers without * were called inactive; ? = inconclusive; . = not tested or not shown; & = joins results of further samples. Not all compounds are listed. The share of hits here may be higher or lower than overall.

SMILES | GLA inh pH 4.5 | Rango release inh | Rango-impB inh | miR-21 FLuc
CCN(Cc1ccncc1)C(=O)CC1C(=O)NCCN1Cc1ccc(F)c(F)c1 (stereo unspecified) | 2 | -17% | -0.7% | 7%
COc1ccc(NC(=O)CN2CCCC2c2cccs2)cc1S(=O)(=O)N1CCCCC1 (stereo unspecified) | . | -7% | ? | .
COc1ccc(-c2c(C(C)=O)c(C)nc3sc4c(c23)NC(c2ccccc2)NC4=O)cc1 (stereo unspecified) | 2 | -9% | -0.2% | -7%
Cc1ccc(C(=O)NCC(=O)OCc2c(F)cccc2Cl)cc1 | . | -13% | -2.5% | .
Cc1ccc2c(c1)nnn2C1CCN(S(=O)(=O)c2ccc(C(=O)N(C)C3CCCCC3)cc2)CC1 | 4 | -15% | -1.4% | 0%
Fc1cccc(CCN2CCNC[C@@H]2c2ccccc2)c1 | . | -10% | 0.0% | .
Cn1c(=O)n(C)c2cc(NC(=O)c3ccccc3[N+](=O)[O-])c(Br)cc21 | 7 | 2% | -0.2% | 4%
COCC(C)NCc1cccc2ccccc12 (stereo unspecified) | 12 | 9% | 2.8% | -2%
N#Cc1ccccc1NC(=O)COc1c(Br)cc(Br)c2cccnc12 | -2 | -14% | -0.2% | -1%
O=C(NC1CCSc2ccccc21)c1ccc([N+](=O)[O-])cc1 (stereo unspecified) | . | 0% | 0.6% | -4%
O=C(NC(=S)Nc1ccc(O)cc1)C1CCCC1 | . | 4% | -2.4% | .
COc1ccccc1NC(=O)Nc1cccc(NC(C)=O)c1 | -2 | 13% | ? | 0%
O=C(O)C(c1ccccc1)N1C(=O)/C(=C/c2cccs2)SC1=S (stereo unspecified) | -15 | -3% | 0.5% | 0%
COc1ccc(Br)c(C(=O)NCC2CCCCC2)c1 | . | -13% | -0.9% | -14%
Cc1ccc(C(=O)CN2C(=O)c3ccccc3S2(=O)=O)cc1 | -4 | 38% | -0.8% | ?
Clc1cccc(-c2nn3c(COc4ccccc4)nnc3s2)c1 | 4 | . | . | 0%
C[N+](C)(C)c1ccc(/C=N/Nc2nc(Cl)c(C#N)c(Cl)c2Cl)cc1 | -6 | -28% | ? | 2%
O=[N+]([O-])c1ccc(NCCNc2ccc(Cl)nn2)cc1 | -4 | -3% | -0.3% | 8%
Cc1cccc(C)c1NC(=O)CN(C)C(=O)CCc1nc2sc3c(c2c(=O)[nH]1)CCCC3 | . | -10% | ? | .
O=C(c1ccco1)n1c(=S)nc2ccccn21 | 7 | -10% | -1.8% | -30%
CC(=O)Nc1ccc(C2Nc3ccccc3C(=O)N2C2CCCCC2)cc1 (stereo unspecified) | 11 | 6% | -0.3% | 2%
O=C(NCc1cccnc1)c1ccc(CS(=O)(=O)Cc2ccc(Cl)cc2)o1 | 0 | -5% | -2.7% | 1%
O=C(c1ccc2ccccc2c1)N1CCCCC1 | . | 26% | 2.3% | -2%
COc1ccc(C(=O)OC(C)C(=O)NC(C)CCc2ccccc2)c(OC)c1 (stereo unspecified) | . | 1% | -2.3% | -2%
CCC(CO)NC1=C([N+](=O)[O-])C(=O)CC(C)(C)C1 (stereo unspecified) | 3 | 5% | 0.9% | 1%
c1ccc(-c2nnc(CSc3nnc(-c4cccs4)o3)o2)cc1 | 6 | -1% | 9.4% | -9%
CCC(=O)N1CCCc2ccccc21 | -1 | 8% | 2.6% | 0%
O=C(NC1CCS(=O)(=O)C1)Oc1ccc(Cl)cc1 (stereo unspecified) | 3 | 1% | -0.5% | -1%
Cc1cccnc1NC(=O)COc1ccc2oc3c(c2c1)CCCC3 | 2 | 4% | -1.7% | -34%
CSc1ccc(S(=O)(=O)Nc2ccc(N3CCOCC3)c(Cl)c2)cc1 | 0 | -8% | 0.4% | 7%
COc1cc(CNc2ccc3[nH]c(=O)[nH]c3c2)ccc1OCc1c(F)cccc1Cl | . | 9% | 0.6% | 8%
Cc1ccc(C(=O)N/C(=C\c2cn(C)c3ccccc23)C(=O)NCCCn2ccnc2)cc1 | . | 13% | 7.2% | -1%
O=S(=O)(NCCN1CCN(S(=O)(=O)c2ccccc2F)CC1)c1ccccc1F | . | -8% | -1.1% | .
COc1cc(C(=O)Nc2cccc(S(=O)(=O)NCc3ccco3)c2)cc(OC)c1OC | . | -1% | 1.6% | .
CN(CC(=O)Nc1ccccc1Cl)C(=O)C1CCN(S(=O)(=O)c2ccc3c(c2)OCCO3)CC1 | . | 11% | 3.3% | .
Cc1ccc(/C=N/NC(=O)CN2C(=O)CSc3ccccc32)o1 | -3 | 3% | 1.5% | 0%
Cn1c(=O)c(=O)n(C)c2cc(S(=O)(=O)CCC(=O)Nc3ccc(F)cc3)ccc21 | . | -1% | -0.4% | -2%&0%
O=C(COc1ccccc1[N+](=O)[O-])Nc1ccc(NC(=O)c2cc3ccccc3o2)cc1 | 0 | 0% | 5.6% | -2%
O=C(O)COc1cccc2ccccc12 | -2 | 9% | 0.8% | 0%
Cc1cc(C(=O)COC(=O)c2ccc(O)cc2)c(C)n1CC1CCCO1 (stereo unspecified) | 9 | 0% | -0.5% | -26%

Given field by field: part of the list above.
> COc1cc(CNc2ccc3[nH]c(=O)[nH]c3c2)ccc1OCc1c(F)cccc1Cl
- GLA inh pH 4.5: .
- Rango release inh: 9%
- Rango-impB inh: 0.6%
- miR-21 FLuc: 8%

> Cc1ccc(C(=O)N/C(=C\c2cn(C)c3ccccc23)C(=O)NCCCn2ccnc2)cc1
- GLA inh pH 4.5: .
- Rango release inh: 13%
- Rango-impB inh: 7.2%
- miR-21 FLuc: -1%

(list continues)
SMILES | GLA inh pH 4.5 | Rango release inh | Rango-impB inh | miR-21 FLuc
COc1ccc(C(CNC(=O)c2ccc(C)c(S(=O)(=O)N3CCCCC3)c2)N2CCCC2)cc1 (stereo unspecified) | . | 39% | 2.8% | .
Cc1ccc(Cn2ccc(NC(=O)c3nc4ncccn4n3)n2)cc1 | 2 | -2% | 1.5% | -13%
O=C1Cc2ccccc2C(=O)N1c1cccc(Cl)c1 | . | -21% | ? | -1%
O=C(N/N=C/c1c(O)ccc2ccccc12)Nc1ccccc1 | . | ? | 65µM* | .
CCOc1ncccc1C(=O)Nc1ccc2c(C)cc(=O)oc2c1 | 8 | -10% | 1.9% | -7%
Cc1cc(C(=O)Nn2c(C3CCCCC3)nc3ccccc3c2=O)ccc1[N+](=O)[O-] | -16 | -8% | -2.0% | 26%
Cc1noc(C)c1S(=O)(=O)N1CCCC1C(=O)NC(C)(C)C (stereo unspecified) | . | -4% | 4.5% | 1%
O=C(O)COCC(=O)NCc1csc2ccc(Cl)cc12 | 3 | -7% | 5.5% | -3%
O=C1Nc2ccccc2N(O)N1c1ccc(Cl)c(Cl)c1 | 8 | -9% | -1.5% | -2%
COc1ccc(NC(=O)c2cc(S(=O)(=O)N(C)C)ccc2N2CCCC2)cc1Cl | ? | 10% | -2.2% | -5%
CCC(C(=O)OCC(=O)N1C(C)CCCC1C)c1ccccc1 (stereo unspecified) | . | -4% | 4.8% | -8%
CCOC(=O)CSc1c(-c2cccs2)[nH]c2ccccc12 | -8 | 12% | 4.2% | 5%
CCCCc1ccc(NC(=O)CC(C)C)cc1 | 4 | -12% | 2.2% | -50%
O=C(Cn1cc2c(n1)CCCC2)NC1CCCCCC1 | -15 | 2% | 3.9% | -14%
CC12CCC(C(=O)Nc3ccccc3Cl)(C(Br)C1=O)C2(C)C (stereo unspecified) | 9 | 0% | -0.3% | 4%
Cc1ccccc1NC(=O)C(C)n1c2ccccc2c2nc(=O)cc(C)n21 (stereo unspecified) | -1 | -4% | 0.8% | 3%
CN(CC(=O)N1CCCCC1)S(=O)(=O)c1cccc2nsnc12 | . | -13% | 3.2% | -2%
COc1cc(NC(=O)CN(C)S(=O)(=O)c2ccc(C)cc2)cc(OC)c1 | -7 | 0% | 0.8% | 1%
Cc1cc([N+](=O)[O-])ccc1NC(=O)COc1nsnc1N1CCOCC1 | . | 1% | 2.4% | -2%
Nn1c(SCC(=O)Nc2ccc3c(c2)OCCO3)nnc1-c1ccncc1 | . | 7% | 0.9% | -4%

As entered above:
In Rango-impB inh, CN(CC(=O)N1CCCCC1)S(=O)(=O)c1cccc2nsnc12 reads 3.2%
In Rango release inh, Cc1cc([N+](=O)[O-])ccc1NC(=O)COc1nsnc1N1CCOCC1 reads 1%
In Rango-impB inh, CCOC(=O)CSc1c(-c2cccs2)[nH]c2ccccc12 reads 4.2%
In miR-21 FLuc, CCOc1ncccc1C(=O)Nc1ccc2c(C)cc(=O)oc2c1 reads -7%
In miR-21 FLuc, O=C1Nc2ccccc2N(O)N1c1ccc(Cl)c(Cl)c1 reads -2%
In Rango release inh, CCCCc1ccc(NC(=O)CC(C)C)cc1 reads -12%

(more compounds)
SMILES | GLA inh pH 4.5 | Rango release inh | Rango-impB inh | miR-21 FLuc
O=C(Cn1c(NCCCCl)nc2ccccc21)c1ccccc1 | . | 1% | 0.4% | .
Cc1c(NC(=O)CN2CCN(C(c3ccccc3)c3ccccc3)CC2)c(=O)n(-c2ccccc2)n1C | -4 | 15% | 0.3% | -1%
CCOc1ccc(N(C)S(=O)(=O)c2ccc3[nH]cc(C(=O)NCC4CCCO4)c(=O)c3c2)cc1 (stereo unspecified) | -5 | 0% | -0.4% | 19%
CCc1ccccc1NC(=O)CCN1C(=O)C2C3CCC(C3)C2C1=O (stereo unspecified) | 1 | 6% | -2.5% | 1%
Cc1nc2cc(NCc3ccccc3O)ccc2n1Cc1ccccc1 | 2 | -2% | -2.5% | -30%
CC(=O)Nc1ccc(SCC(=O)NCCc2ccc(F)cc2)cc1 | . | 4% | 0.0% | 6%
Cc1cc(C)c(C2C(C#N)=C(N)Oc3n[nH]c(C)c32)cc1CN1CCCC1 (stereo unspecified) | -6 | 18% | -1.1% | 4%
Cc1nn(-c2ccccc2)c(C)c1C1C(C#N)=C(N)Oc2n[nH]c(C)c21 (stereo unspecified) | 8 | 6% | 4.2% | -14%
CC(=O)c1ccc(NC(=O)CNCC(c2ccccc2)N(C)C)cc1 (stereo unspecified) | 1 | -21% | ? | -4%
Cc1c(O)ccc(/C=N/Nc2ncccc2[N+](=O)[O-])c1O | . | 0% | -0.2% | -39%
COC(=O)Cn1cc(/C=C/c2cc[n+](C)cc2)c2ccccc21 | . | ? | ? | 1%
COc1ccc(OC)c(/C=C/C(=O)OCC(=O)N2C(C)CCCC2C)c1 (stereo unspecified) | . | -6% | ? | .
O=S(=O)(Nc1ncccn1)c1ccc(NC(=S)Nc2ccc(Cl)cc2)cc1 | -11 | -7% | 3.0% | -5%
O=C(c1nc2ccc(Cl)cn2c1CNCCc1cnccn1)N1CCCCCCC1 | . | 18% | -0.3% | -5%
CCOC(=O)CSc1nnc(CNc2cccc(Cl)c2)n1C | 1 | -7% | 0.2% | -2%
O=C(O)c1cccc(S(=O)(=O)Nc2ccc3c(c2)CCC3)c1 | . | 18% | 0.6% | 0%
O=C1/C(=C/c2ccccn2)SC(=S)N1CCc1ccccc1 | 3 | 4% | 0.1% | 4%
Cc1ccsc1CNC12CC3CC(CC(C3)C1)C2 | 7 | 0% | 0.4% | -1%
COC(=O)Cc1csc(Nc2ccc(F)c(Cl)c2)n1 | 0 | 14% | 0.2% | -1%
O=C(Nc1nc2ccccc2n1Cc1ccccc1)c1ccc(COc2ccccc2[N+](=O)[O-])o1 | -10 | -18% | 3.9% | -6%
COc1cc(CNc2cccc3[nH]c(C(F)(F)F)nc23)cc(OC)c1 | . | 0% | 0.5% | 4%
COc1ccc([N+](=O)[O-])cc1/C=N/Nc1nn[nH]n1 | 3 | -12% | -0.5% | 0%
CCn1c(C(=O)N2CCC(C(=O)NCCCSC3CCCCC3)CC2)cc2sccc21 | -10 | -16% | -1.2% | 24%
O=C(Nc1ccc(O)c2c(=O)cc(-c3ccccc3Cl)oc12)c1cccs1 | 0 | -18% | 3.8% | -13%
O=C(CN1C(=O)c2cccnc2Oc2ccc(Cl)cc21)N1CCCCCC1 | . | -16% | -4.1% | -5%
COc1ccccc1CNC(=O)c1ccc2ccccc2n1 | . | 6% | -5.0% | -26%
Cn1c(CC(=O)Nc2ccccc2F)nnc1SCC(=O)NC1=NCCS1 | . | 0% | -2.7% | 2%
COc1ccc2[nH]c(=O)c(CN(C(=O)c3ccccn3)C3CCCCC3)cc2c1 | 0 | -4% | 4.9% | -9%
